Screens as filed in PubChem BioAssay.
Vaccinia Venus – vaccinia inhibition (Venus reporter); Vaccinia virus Venus reporter expression, fluorescence; Potency, µM (doses to about 36.5 µM), without a hit: at the top dose activity change, negative = inhibition, actives largely listed as inhibitors; actives 0.46% (n = 330,000); AID 720580; active means well fitted inhibition curve with a large enough effect; inconclusive means small, poorly fitted or top-dose-only effect; inactive means no such curve, though single readings can be large or run the other way; tested in A549 cells; also: nearly all actives have a fitted effect of over 30% in size; inactives centre near -10
Vaccinia mCherry – inhibitors of vaccinia virus infection (mCherry reporter signal); Vaccinia virus mCherry reporter infection, fluorescence; about a quarter of the inactives have no number; Potency, µM (doses to about 36.5 µM), without a hit: at the highest dose activity change, negative = inhibition, hits mostly inhibitors; actives 0.63% (n = 310,000); AID 720579; active = well fitted inhibition curve with a large enough effect; inconclusive = small, poorly fitted or top-dose-only effect; inactive = no such curve, though single readings can be large or run the other way; tested in A549 cells; also: nearly all actives have a fitted effect of over 35% in size; inactives centre near -10
* marks the source's active call; other numbers are inactive results; i = inactive; ? = inconclusive; nt = not tested or not shown; [ ] = dose if it differs, or a comment. % is scaled to controls: 0 for no effect and ±100 for the full control effect; potency is read from the fitted curve at half-maximal effect.

A first look:
SMILES | Vaccinia Venus | Vaccinia mCherry
Cc1ccc2nc(NC(=S)NC(=O)c3cccs3)sc2c1 | -12% | -6%
Cc1ccc2nc(SCC(=O)Nc3ccc4c(c3)OCO4)nc(=O)n2c1 | 9% | -25%

This part in full (from the top)
SMILES | Vaccinia Venus | Vaccinia mCherry
Cc1ccc2nc(NC(=S)NC(=O)c3cccs3)sc2c1 | -12% | -6%
Cc1ccc2nc(SCC(=O)Nc3ccc4c(c3)OCO4)nc(=O)n2c1 | 9% | -25%
Cc1ccc(NC(=O)CNC(=O)c2cccs2)cc1S(=O)(=O)Nc1ccc(Cl)cc1 | -28% | ?
Oc1ccccc1N1CCN(c2ncnc3scc(-c4ccccc4)c23)CC1 | 12% | ?
CCCCN1C(=O)C2C(c3ccc(OC)cc3O)NC(CC(C)C)(C(=O)O)C2C1=O (stereo not drawn) | -9% | i
O=C(NCCc1ccccc1)C(=O)NCCC1CCCCN1S(=O)(=O)c1ccccc1 (stereo not drawn) | -14% | -3%
COCCn1c(C)cc(/C=N/NC(=O)c2cccnc2)c1C | -2% | -11%
Cc1ccc(-c2c(C)sc(=NC(=O)c3ccco3)n2C)cc1 | -20% | i
Cc1noc(C)c1NC(=O)N(C)C[C@@H]1OCc2ccccc2-c2c(n(C)c3ccccc23)C(=O)N([C@H](C)CO)C[C@H]1C | -22% | -15%
O=C(c1cc(COc2ccc(F)c(F)c2)on1)N1CCSCC1 | -5% | -15%
CCCCN1C(=O)C(C#N)CC2=C1CC(C)(C)CC2=O (stereo not drawn) | -12% | i
CCc1ccc(CN(Cc2ccco2)c2cnc(S(C)(=O)=O)nc2C(=O)Nc2ccc(C)c(Cl)c2)cc1 | -14% | -12%
CCOC(=O)C1=C(C)Nc2ccccc2N=C1NC(=O)C(c1ccccc1)c1ccccc1 | 1% | 6%
Cc1cnc(C)c(-c2ccc3c(c2)CC(CNC(=O)Cc2c(C)[nH]c4ccccc24)O3)n1 (stereo not drawn) | ? | ?
CC(=O)OC1=C(C(C)=O)N(Cc2ccccc2)S(=O)(=O)c2ccccc21 | -3% | -6%
COc1cnn(-c2ccc(C)cc2)c(=O)c1Cl | 0% | -14%
CCCN1CNc2c(c(=O)[nH]c(=S)n2CCc2cccc(Cl)c2Cl)C1 | -29% | -8%
CCOc1ccc(C(=O)NC2C(=O)N3C(C(=O)O)=C(COC(C)=O)CSC23)cc1OCC (stereo not drawn) | -4% | i
COc1ccccc1-c1ccc(/C=C2/C=C(CC(C)C)OC2=O)o1 | -6% | -14%
CN(c1nc2c(c(=O)n(C)c(=O)n2C)n1CC(=O)c1ccccc1)C1CCCCC1 | -26% | nt
CC(=O)c1ccc(NC(=O)COC(=O)CCc2ccc(S(=O)(=O)N3CCOCC3)cc2)cc1 | 6% | i
COC(=O)c1ccc(OCCOc2ccccc2C)cc1 | -9% | -14%
Cc1cc(C(=O)OC(C(=O)Nc2cccc(C(F)(F)F)c2)c2ccccc2)c(C)o1 (stereo not drawn) | -28% | -9%
CC(=O)N1N=C(c2ccc(C)cc2)OC1c1cccnc1 (stereo not drawn) | -12% | -10%
COC(=O)Cn1cc(C#N)c2ccccc21 | 2% | nt
SMILES | Vaccinia Venus | Vaccinia mCherry
CCOC(=O)N1C(=O)[C@](CC)(c2ccccc2)N1C(=O)OCC | -29% | ?
CCCNC(=O)C1(C)CCN(C(=O)c2ccccc2OC(F)(F)F)C1 (stereo not drawn) | 12% | -13%
CN(C)S(=O)(=O)N1CCC(Oc2cccc(C(=O)NCCC3=CCCCC3)c2)CC1 | ? | -23%
O=C(NCCc1nc2ccccc2[nH]1)c1ccc([N+](=O)[O-])cc1 | -17%[7.34 µM] | -20%[7.34 µM]
CCS(=O)(=O)N1CCC(C(=O)NCCC(C)C)CC1 | -12% | -6%
O=C(c1ccccc1F)N1CCC2CC1c1cc(N3CCCCC3)ccc12 (stereo not drawn) | -19% | -12%
CCOC(=O)[C@@H]1[C@H]2COc3ccccc3[C@H]2N2C(=O)N(c3ccc(Cl)cc3)C(=O)[C@]12C | 9% | i
NC(c1ccccc1)c1csc(NC(=O)Nc2ccc(OC(F)(F)F)cc2)n1 (stereo not drawn) | -23% | i
CN=C1S/C(=C\c2cc(C)n(-c3ccccc3F)c2C)C(=O)N1C | -18% | -2%
O=C1N[C@@H](Cc2ccccc2)C(=O)N2[C@H]1C[C@]1(Br)c3ccccc3N(S(=O)(=O)c3ccc(F)cc3)[C@H]21 | -22% | i
O=C(CNC(=O)C(c1ccccc1)c1ccccc1)OCc1ccccc1 | 3% | i
CCOc1ncccc1C(=O)NCCc1c[nH]c2ccccc12 | -14% | -11%
CC(=O)N1CCc2cc(S(=O)(=O)NC(C(=O)NC(C)c3ccccc3)C(C)C)ccc21 (stereo not drawn) | -2% | -3%
COc1cc(/C=C(\CC(=O)O)c2nc3ccccc3s2)ccc1OCC(=O)Nc1ccccc1F | 3% | -1%
CC(=O)N(C(C)=O)n1c(/C=C/c2ccc([N+](=O)[O-])cc2)nc2ccccc2c1=O | -9% | -10%
COc1ccccc1N1CCN(C2CCCN(C(=O)CCC(=O)N(C)C)C2)CC1 (stereo not drawn) | -8% | i
CCC(=O)N1CCc2cc(Br)cc(S(=O)(=O)NCCCN(CC)Cc3ccccc3)c21 | ? | -1%
COC(=O)CCCCCCCCCC[N+]1(C)CCCCC1 | -9% | i
Cc1cnc([N+](=O)[O-])n1CCOC(=O)NC(=O)c1ccccc1Cl | -4% | -10%
CC(C)c1nn2c(N)c(/C=C3\C=Nc4ccccc43)c(=O)nc2s1 | -15% | i
COC(=O)C[C@@H]1C=C[C@H](NS(=O)(=O)c2cccc(F)c2)[C@@H](CO)O1 | 1% | -9%
COc1cccc(C(=O)NCCS(=O)(=O)NCc2cccnc2)c1 | -15% | -11%
Cc1cccc(/C(N)=N/OC(=O)c2ccc(Br)o2)c1 | -7% | -17%
CC(=O)Nc1ccc(S(=O)(=O)Nc2cccc(-n3c(C)nc4ccccc4c3=O)c2)cc1 | -5% | -10%
CC1(C)CC(=O)c2cc(NC(=O)c3ccccc3)c(=O)oc2C1 | -7% | -12%
SMILES | Vaccinia Venus | Vaccinia mCherry
C/C(=N\NC(=O)COc1ccc(C(C)(C)C)cc1)c1ccc2c(c1)OCCO2 | -15% | -6%
C/C(=N/NC(=O)CNC(=O)c1cccc(F)c1)c1ccc2c(c1)CCCC2 | -10% | -13%
CC(=O)c1cccc(NC(=O)C(=O)c2cn(CC(=O)N3CCCCC3)c3ccccc23)c1 | -10% | i
Cc1cc(F)ccc1S(=O)(=O)N1CCCOC1CNC(=O)C(=O)NCCc1ccccc1 (stereo not drawn) | -21% | -24%
Cc1cccc(NC(=O)C2CCN(S(=O)(=O)c3c(C)c(C)cc(C)c3C)CC2)n1 | -26% | -16%
COc1ccc(NC(=O)N2CCN3CCCCC3C2)cc1OC (stereo not drawn) | -5% | i
COC(=O)c1ccccc1NC(=O)N1CSC[C@H]1C(=O)OC | -19% | nt
Cc1nc2sc(C(c3cccs3)N3CCC4(CC3)OCCO4)c(O)n2n1 (stereo not drawn) | -9% | -18%
CC(=O)Nc1cc(C(C)C)c(O)c(C(C)C)c1 | -12% | -13%
COc1ccccc1CCC(=O)NCCCn1ccc2ccccc21 | 5% | ?
OCC1(Cc2ccccc2)CCN(Cc2cnc(-c3cccc4ccccc34)nc2)CC1 | -17% | i
Clc1cccc(CSc2ccc(-c3cccnc3)nn2)c1 | -15% | -15%
CN(C)S(=O)(=O)c1cccc(NC(=O)CSc2nncn2C)c1 | -7% | 0%
CCCSc1ncc(Cl)c(C(=O)Nc2ccc(S(=O)(=O)N(C)c3ccccc3)cc2)n1 | -13% | -18%
CC(C)CCNC(=O)c1ccc2c(c1)N(Cc1ccccc1)C(=O)CS2=O (stereo not drawn) | -8% | -8%
COC(=O)C(NC(=O)c1ccco1)(Nc1nc(C)cs1)C(F)(F)F (stereo not drawn) | -27% | nt
Cc1cccc(NC(=O)CSc2ccc(-c3ccco3)nn2)c1C | -19% | -22%
CC(C)NC(=O)CN1C(=O)CCn2nc(-c3cn(C)c4ccccc34)cc21 | 7% | -4%
CCOC(=O)c1ccc(NC(=O)c2cn(-c3ccccc3)nc2-c2ccncc2)cc1 | -7% | -10%
CN(CC(=O)Nc1cc(S(=O)(=O)N2CCOCC2)ccc1Cl)C1CCS(=O)(=O)C1 (stereo not drawn) | -14% | -3%
Cc1cc(C)c(NC(=S)N(CCCN2CCOCC2)Cc2cccnc2)c(C)c1 | -5% | -9%
Cc1cc(C)c2sc(N(CCN(C)C)C(=O)c3c(F)cccc3F)nc2c1 | 6% | ?
COc1cccc(C(=O)Nc2ccc3c(c2)CCCN3C(=O)c2cccs2)c1OC | -14% | -7%
CCOC(=O)C1=C(COC(=O)C2(C)CC2(Cl)Cl)NC(=O)NC1c1ccc(OC)cc1 (stereo not drawn) | -10% | -8%
O=C(NCc1cc2ccccc2[nH]1)C1CCC(=O)N(CC2CCCCC2)C1 (stereo not drawn) | -20% | -23%

Copied from the results shown, 19 compounds:
SMILES | Vaccinia Venus | Vaccinia mCherry
COC(=O)c1ccccc1NC(=O)N1CSC[C@H]1C(=O)OC | -19% | nt
Cc1nc2sc(C(c3cccs3)N3CCC4(CC3)OCCO4)c(O)n2n1 (stereo not drawn) | -9% | -18%
CC(=O)Nc1cc(C(C)C)c(O)c(C(C)C)c1 | -12% | -13%
COc1ccccc1CCC(=O)NCCCn1ccc2ccccc21 | 5% | ?
OCC1(Cc2ccccc2)CCN(Cc2cnc(-c3cccc4ccccc34)nc2)CC1 | -17% | i
Clc1cccc(CSc2ccc(-c3cccnc3)nn2)c1 | -15% | -15%
CN(C)S(=O)(=O)c1cccc(NC(=O)CSc2nncn2C)c1 | -7% | 0%
CCCSc1ncc(Cl)c(C(=O)Nc2ccc(S(=O)(=O)N(C)c3ccccc3)cc2)n1 | -13% | -18%
CC(C)CCNC(=O)c1ccc2c(c1)N(Cc1ccccc1)C(=O)CS2=O (stereo not drawn) | -8% | -8%
COC(=O)C(NC(=O)c1ccco1)(Nc1nc(C)cs1)C(F)(F)F (stereo not drawn) | -27% | nt
Cc1cccc(NC(=O)CSc2ccc(-c3ccco3)nn2)c1C | -19% | -22%
CC(C)NC(=O)CN1C(=O)CCn2nc(-c3cn(C)c4ccccc34)cc21 | 7% | -4%
CCOC(=O)c1ccc(NC(=O)c2cn(-c3ccccc3)nc2-c2ccncc2)cc1 | -7% | -10%
CN(CC(=O)Nc1cc(S(=O)(=O)N2CCOCC2)ccc1Cl)C1CCS(=O)(=O)C1 (stereo not drawn) | -14% | -3%
Cc1cc(C)c(NC(=S)N(CCCN2CCOCC2)Cc2cccnc2)c(C)c1 | -5% | -9%
Cc1cc(C)c2sc(N(CCN(C)C)C(=O)c3c(F)cccc3F)nc2c1 | 6% | ?
COc1cccc(C(=O)Nc2ccc3c(c2)CCCN3C(=O)c2cccs2)c1OC | -14% | -7%
CCOC(=O)C1=C(COC(=O)C2(C)CC2(Cl)Cl)NC(=O)NC1c1ccc(OC)cc1 (stereo not drawn) | -10% | -8%
O=C(NCc1cc2ccccc2[nH]1)C1CCC(=O)N(CC2CCCCC2)C1 (stereo not drawn) | -20% | -23%

Further structures:
SMILES | Vaccinia Venus | Vaccinia mCherry
COc1cc(C(=O)NNC(=S)NC(=O)c2ccc3c(c2)OCO3)cc(OC)c1OC | -28% | -27%
C/C(=N\n1cnnc1)c1ccccc1 | 2% | -15%
COc1ccccc1OCC(=O)NNC(=O)c1c(-c2ccccc2Cl)noc1C | -3% | 3%
COc1cc(C(=O)OCC(=O)NC(=O)NC2CCCCC2)cc(Cl)c1OC | -9% | -15%
Cc1ccc(NNC(=O)C(=O)N2CCCCC2)cc1 | -14% | -1%
CCNc1cc2c(cc1O)CCC1C2CCC2(C)C(O)CCC12 (stereo not drawn) | -18% | ?
CCOC(=O)c1ccc(Nc2ncccc2[N+](=O)[O-])cc1 | -5% | -12%
CCOC(=O)c1ccccc1NC(=O)COC(=O)c1ccc(C)c(S(=O)(=O)N2CCOCC2)c1 | -7% | -19%
O=C(NCC(c1ccco1)N1CCCCC1)c1cccc(S(=O)(=O)Nc2ccccc2Cl)c1 (stereo not drawn) | -20% | -7%
CCN(CC)C(=O)C1=C(C)NC(=S)NC1c1cccs1 (stereo not drawn) | -11% | -3%
CC(C)(CN1CCOCC1)NS(=O)(=O)c1ccccc1 | -3% | -27%
O=C(Nc1cccc2cccnc12)c1ccc(F)cc1 | -11% | i
COc1ccc(CCNC(=O)c2ccc3c(c2)N(Cc2cccc(C)c2)C(=O)c2ccccc2S3(=O)=O)cc1OC | -18% | -17%
COc1cccc(NC(=O)/C(C#N)=C/c2c(C)n(Cc3ccc(Cl)cc3)c3ccccc23)c1 | 0% | -12%
CC(C(=O)NC1CCCC1)N(C(=O)CS(=O)CC(=O)Nc1ccc(F)cc1)c1ccc2c(c1)OCCO2 (stereo not drawn) | 5% | i
O=C(CSc1nc2nc3c(cc2c(=O)n1-c1ccccc1)CCCC3)Nc1cccc2ccccc12 | -13% | -2%
CCOC(=O)C1(CC2CC2)CCN(C(=O)c2cccnc2C)CC1 | -6% | -9%
COc1ccc(C2=CC(c3cccc(C)c3)n3nnnc3N2)cc1 (stereo not drawn) | -12% | -8%
CN(C)CCC(=O)c1ccc(F)cc1 | -9% | -11%
COc1ccc(N=C2SC(C(=O)Nc3ccc(F)cc3)CC(=O)N2C)cc1 (stereo not drawn) | -10% | -12%
CC(C)C[C@H]1COCCS(=O)(=O)N1Cc1ccccc1F | -1% | i
Cc1[nH]c(=S)[nH]c(=O)c1CCCO | -11% | -13%
CCc1ccc(N2C(=O)N(CC(=O)C(C)(C)C)c3ccccc3S2(=O)=O)cc1 | -22% | -6%
CC[C@]12c3[nH]c4ccccc4c3CCN1C(=O)C(CC(=O)NCC13CC4CC(CC(C4)C1)C3)C[C@@H]2C(=O)N1CCN(C(=O)C2CC2)CC1 (stereo partly drawn) | -17% | -12%
